PABP polyA inh – PABP-poly(A) binding inhibition; P11940; hit rate 1% among 290,000; inhibition, % at 35 µM; AID 2014; PABP-poly(A) RNA binding, fluorescence polarization;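 active = 50% or more with normal probe brightness, or confirmed in later tests; inconclusive = above 50% with abnormal brightness, or retests that disagree; inactive = below 50% or failed in later tests; about a fifth of its hits are not listed in these tables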;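 note: calls also rest on retests at 20 µM and on dose response follow-up; controls were probe without protein and protein plus probe with vehicle; some compounds called inactive have numbers as strong as hits; many hits fall short of the cut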
Target sequence (P11940 whole entry, looked up): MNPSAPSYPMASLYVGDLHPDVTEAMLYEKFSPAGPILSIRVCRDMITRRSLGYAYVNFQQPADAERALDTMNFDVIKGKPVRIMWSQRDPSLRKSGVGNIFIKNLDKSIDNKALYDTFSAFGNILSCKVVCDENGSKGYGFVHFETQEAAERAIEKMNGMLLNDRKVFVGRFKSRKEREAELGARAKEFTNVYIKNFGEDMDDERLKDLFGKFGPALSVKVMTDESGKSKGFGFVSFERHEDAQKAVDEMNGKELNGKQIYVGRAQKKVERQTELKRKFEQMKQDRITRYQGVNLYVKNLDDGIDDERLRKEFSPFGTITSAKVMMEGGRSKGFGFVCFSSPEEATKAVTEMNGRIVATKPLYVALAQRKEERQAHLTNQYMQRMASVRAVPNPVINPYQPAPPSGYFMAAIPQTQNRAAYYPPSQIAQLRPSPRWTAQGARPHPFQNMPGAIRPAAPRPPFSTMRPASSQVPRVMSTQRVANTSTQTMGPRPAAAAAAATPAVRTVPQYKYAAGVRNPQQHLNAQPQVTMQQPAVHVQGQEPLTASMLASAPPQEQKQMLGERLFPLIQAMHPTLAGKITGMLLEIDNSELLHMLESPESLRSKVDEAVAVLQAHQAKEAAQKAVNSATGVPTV
CSC inhib – cancer stem cell inhibition; cancer stem cell-like cells viability, luminescence; inhibition, % at 7.5 µM; hit rate 1.1% among 300,000; AID 2717;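 active = mean at 75% or more and at least half the replicates too; inconclusive = mean and replicates disagree; tested in HMLE shEcad cells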;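 note: 0% = median of negative and 100% = median of positive control wells; the first replicate is given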
HIV Env fusion – inhibitors of HIV Env-mediated cell fusion; inhibition, % at 12.3 µM; HeLa-JRFL Env/CEM21 cell fusion, luciferase; hit rate 1.1% among 360,000;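 active = mean replicate inhibition score of at least 50 and every replicate individually at or above 50; inconclusive = only one of the two criteria met; inactive = mean below 50 and not all replicates reaching 50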;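 note: 0% = plate neutral controls and 100% = maraviroc near 300 nM; one replicate is shown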
Rce1 inhib – blocks yeast Ras-converting enzyme. Q03530. yeast membranes, quenched prenylated peptide cleavage fluorescence. calls only. hit rate 0.27% among 290,000;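 active = fall in fluorescence gain of 50% or more versus controls, with final raw signal at or below 3038400; inconclusive = same 50% fall but final raw signal above 3038400; inactive = fall in fluorescence gain under 50%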;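 note: plate controls were neutral control wells for no effect and wells lacking membranes for full effect; tested at 10 µM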
UUG fidelity – alters start codon recognition fidelity in yeast; S. cerevisiae UUG-firefly luciferase reporter, luminescence/redox ratio; activity score, % at 18.7 µM; hit rate 0.13% among 350,000;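 active = replicate mean at a twofold rise or more, about +100% in these data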;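 note: firefly luciferase made from a UUG start codon reports start codon fidelity; reporter light over untreated wells divided by growth signal over untreated wells; some hits fall short of that in this replicate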
MT1-MMP act inh – blocks activation of human MT1-MMP | P50281 | HT1080 RFP-PRO-GFP cells, GFP/RFP ratio fluorescence, overnight; percent of plate control window, DMSO zero | GFP/RFP ratio change, % at 20 µM | hit rate 0.061% among 360,000;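 active = GFP/RFP ratio change of at least 30% with cell ATP level not reduced by more than half and red fluorescence within 50% of control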; note: strong numbers were not always called active
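Test system: HT1080 RFP-PRO-GFP cells; Benchmarks: DMSO and RFP-L50D-GFP cell wells; Timing: cells overnight before dosing, compound overnight, 37 °C, 5% CO2; Compound: one 20 µM compound dose with 1% DMSO; Read-out: GFP/RFP fluorescence ratio.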
eIF4H inh – inhibitors of RNA binding by human eIF4H; Q15056; hit rate 0.94% among 290,000; inhibition, % at 35 µM; AID 2012; eIF4H fluorescence polarization binding assay;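 active = 50% or more with normal probe brightness, or confirmed in later tests; inconclusive = above 50% with abnormal brightness, or retests that disagree; inactive = below 50% or failed in later tests; about a fifth of its hits are not listed in these tables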;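 note: calls also rest on retests at 20 µM and on dose response follow-up; 0% = protein and probe with vehicle and 100% = probe without protein; strong numbers were not always called active; many hits fall short of the cut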
MT1-MMP act inh RFP – further read-out of MT1-MMP act inh, marked with its call; RFP signal change, %; measured here: RFP expression control read;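 0 = vehicle wells; hits needed this value within 50% of zero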
Numbers without * were called inactive; i = inactive; ? = inconclusive; . = not tested or not shown. A portion of the library; rates above refer to the full screens.

SMILES	PABP polyA inh	CSC inhib	HIV Env fusion	Rce1 inhib	UUG fidelity	MT1-MMP act inh	MT1-MMP act inh RFP	eIF4H inh
O=C(/C=C/c1ccc2c(c1)OCO2)NCCSCc1cccc(Cl)c1	-5	102*	10	i	-6	3	2	1
N#C/C(=C\c1ccc(N2CCCCC2)o1)C(=O)Nc1cccc(Br)c1	-6	-13	-66	i	.	-78	17	39
c1ccc(-c2noc(CSc3nc4ccccc4o3)n2)cc1	-8	6	-18	i	-7	-2	2	7
COC(=O)c1cccc(NC(=O)CSc2nnc(C)o2)c1	-8	-18	-2	i	-6	0	2	0
O=C(CSc1ccc2ccccc2c1)Nn1cnnc1	1	-12	.	i	-4	1	0	-3
Cc1ccc(S(=O)(=O)NC(=S)c2ccccc2)cc1	.	-8	-12	i	-11	.	.	.
CCOc1ccc(NC(=O)CSc2nncc(=O)[nH]2)cc1	-1	-5	-6	i	-13	4	0	-6
Cn1c(C(=O)OCC(=O)NCC2CCCO2)cc2sccc21 (stereo not drawn)	1	-12	2	i	-5	0	1	6
CCCC(=O)NC(=S)Nc1ccc(Cl)cn1	-10	-15	-60	i	-18	0	5	-8
COc1ccccc1NS(=O)(=O)c1cc(NC(=O)c2ccc(NC(C)=O)cc2)ccc1N1CCOCC1	.	.	-6	.	-8	0	-3	.
COc1ccc(NC(=O)CNC(=O)Cn2cnc3sc(C)c(C)c3c2=O)cc1OC	6	-11	0	i	-18	1	2	3
Cc1cccc(C(=O)NC(=S)NCc2ccccc2)c1	.	1	14	i	-34	2	0	.
COc1ccc(S(=O)(=O)N2CCOCC2)cc1NS(=O)(=O)/C=C/c1ccccc1	-6	.	3	i	.	7	8	-7
CN(CC(=O)Nc1ccc(Cl)c(S(=O)(=O)N2CCOCC2)c1)C(=O)c1cccs1	.	-7	14	.	-15	-2	1	.
COc1ccc(F)cc1CN1CCN(CC(=O)N2CCc3ccccc32)CC1	8	1	5	i	-10	3	3	-7
COc1ccccc1NC(=S)NNC(=O)c1ccc(Cl)cc1Cl	?	-3	-113	i	-36	1	0	9
O=C(COC(=O)c1n[nH]c2ccccc12)NCCc1ccccc1	.	-13	.	.	-14	1	-1	.
CC(C)NC(=O)CSc1nc(Cc2ccccc2)nc2ccccc12	4	-4	9	i	-7	-6	-4	-10
Cc1c(C(=O)NCc2ccccn2)oc2ccc(S(=O)(=O)N3CCC4(CC3)OCCO4)cc12	1	-15	1	.	.	0	2	9
O=C1NCCCCC1NS(=O)(=O)c1ccc(F)c(F)c1 (stereo not drawn)	2	-16	-8	i	-19	2	1	6
CCOC(=O)c1cc2n(n1)C(C(F)(F)F)CC(C)N2 (stereo not drawn)	4	-1	.	i	-15	2	3	-2
CCC(=O)NC(=S)Nc1ccc(S(=O)(=O)NC(C)=O)cc1	-4	-16	.	.	-9	0	9	-8
COc1cc(C(C(=O)NCc2ccccc2)N(Cc2ccco2)C(=O)c2cnccn2)cc(OC)c1OC (stereo not drawn)	4	-12	10	i	.	-1	1	12
CN(C(=O)c1ccc(NC(=O)Cc2ccc(NC(=O)C3CCCN(C(=O)c4ccccc4)C3)cc2)cc1)C1CCCC1 (stereo not drawn)	.	.	-1	.	5	1	-7	.
CCOC(=O)C[C@H]1c2cc(F)ccc2S(=O)(=O)N1C(C)(C)C	.	2	6	i	-9	3	2	.
O=C1N=C(N2CCOCC2)S/C1=C\c1cccnc1	?	-9	3	i	9	-2	-1	?
Cn1c2ccccc2c2nnc(SCC(=O)Nc3cccc(O)c3)nc21	13	-8	-16	i	-14	-1	-3	-6
O=C(N1CCOCC1)N1c2ccccc2CC(N2CCOCC2)c2ccccc21 (stereo not drawn)	-9	-5	.	.	-12	4	4	5
O=C1C=C(NC2CCCCC2)CCC1	.	14	-13	i	-3	0	7	.
Cc1cc(C)cc(OCc2nnc(SCC(=O)N3CCN(c4ccccc4)CC3)o2)c1	0	-8	.	i	-21	-2	-8	5

Some values from above.
`O=C1C=C(NC2CCCCC2)CCC1` in MT1-MMP act inh RFP = 7
`Cc1c(C(=O)NCc2ccccn2)oc2ccc(S(=O)(=O)N3CCC4(CC3)OCCO4)cc12` in MT1-MMP act inh = 0
`O=C1N=C(N2CCOCC2)S/C1=C\c1cccnc1` in MT1-MMP act inh = -2

Sorted by length of the SMILES (falling): some entries from above.
SMILES	PABP polyA inh	CSC inhib	HIV Env fusion	Rce1 inhib	UUG fidelity	MT1-MMP act inh	MT1-MMP act inh RFP	eIF4H inh
COc1ccc(S(=O)(=O)N2CCOCC2)cc1NS(=O)(=O)/C=C/c1ccccc1	-6	.	3	i	.	7	8	-7
O=C(N1CCOCC1)N1c2ccccc2CC(N2CCOCC2)c2ccccc21 (stereo not drawn)	-9	-5	.	.	-12	4	4	5
Cn1c2ccccc2c2nnc(SCC(=O)Nc3cccc(O)c3)nc21	13	-8	-16	i	-14	-1	-3	-6

Further entries:
SMILES	PABP polyA inh	CSC inhib	HIV Env fusion	Rce1 inhib	UUG fidelity	MT1-MMP act inh	MT1-MMP act inh RFP	eIF4H inh
O=S1(=O)CCC(NS(=O)(=O)c2ccc3ccccc3c2)C1 (stereo not drawn)	-4	.	12	i	-4	2	2	-3
O=C(Cc1ccc(S(=O)(=O)N2CCOCC2)s1)NCC(=O)Nc1ccccc1Br	.	6	-5	.	-8	5	-3	.
COc1cccc(C(=O)CSc2nc3ccccc3n2CC(=O)N2CCOCC2)c1	-1	-3	.	i	-21	-2	-1	-2
CC(=O)c1cccc(NCC(=O)c2ccc(C)c([N+](=O)[O-])c2)c1	5	-9	3	i	-18	2	2	-5
Cc1cc(OCC(=O)NCCCn2ccnc2)c2c(C)c(C)c(=O)oc2c1	-1	4	9	i	2	3	2	-18
CC(C)C(NC(=O)C12CC3CC(CC(C3)C1)C2)C(=O)N/N=C/C1=C(N2CCOCC2)C(=C\c2cccc([N+](=O)[O-])c2)/CC1 (stereo not drawn)	4	.	12	i	1	-1	-6	1
Cc1ccc(S(=O)(=O)NC(C)(C)CSc2nncn2N)cc1	-1	5	.	i	-12	-3	4	4
CCOC(=O)c1ccc(N2C(=O)CC(SCC(=O)Nc3ccc(S(N)(=O)=O)cc3)C2=O)cc1 (stereo not drawn)	10	-9	29	i	.	0	2	12
Cc1cccc(S(=O)(=O)Nc2nc3ccccc3nc2OC(C)C)c1	4	-12	7	i	-5	-1	1	-9
Cc1ccccc1CC(=O)Nc1ccc2c(c1)CCC2	-2	-12	11	i	-8	0	-5	-13
Cc1ccc(C)c(NC(=O)CN(C)C(=O)c2cccc(N3C(=O)CCC3=O)c2)c1	.	-1	-3	i	10	2	3	.
N#Cc1ccc(Cl)cc1NC(=O)CN1C(=O)C(=O)N(CCC2=CCCCC2)C1=O	.	.	9	.	-7	-6	-1	.
O=C(CC1C(=O)CCCC1=O)c1ccccc1	4	-10	7	i	.	2	-1	2
CC(C)(C)C1=C[C@@H](CO)C[C@@H](CO)C1	-1	3	.	i	-17	1	2	-4
N#Cc1nc(-c2ccco2)oc1NCc1ccccc1Cl	-2	2	3	i	-12	8	-2	-5
O=C(O)c1ccc(Cl)c(S(=O)(=O)NCc2cccnc2)c1	4	-6	25	i	-17	3	2	4
CCC(C)NC(=O)C(Sc1ccccc1)c1ccccc1 (stereo not drawn)	3	12	5	i	.	1	4	10
O=C(CS(=O)Cc1ccccc1Cl)Nc1ccccc1Cl (stereo not drawn)	4	24	-9	i	.	-2	0	-3
CCOC(=O)c1ccccc1NC(=O)CCNC(=O)Cn1cnc2ccccc2c1=O	4	0	22	i	-4	-2	1	-4
C=CCc1cccc(Cl)c1OCCON1C(=O)CCC1=O	-3	-2	-6	i	-10	-3	2	-4
COc1cccc(NC(=S)NNC(=O)Cn2nc(C(F)F)cc2C(F)F)c1	8	-2	18	i	.	-2	0	10
CCn1nnnc1NCc1ccc(N2CCCC2)cc1	10	3	.	i	11	-5	0	6
Cc1ccccc1CSc1nnc(-c2cnccn2)n1C	7	-17	-1	i	-20	1	1	-4
COc1ccccc1-c1nnc(SCC(=O)NC2CCS(=O)(=O)C2)n1CCc1ccccc1 (stereo not drawn)	-1	-4	-9	i	.	2	3	-1
Cc1cc(C)n(CC(O)Cn2c3ccc(Br)cc3c3cc(Br)ccc32)c(=O)n1 (stereo not drawn)	1	20	-2	i	.	-6	-11	-1
O=C(c1ccc(Cl)c(Cl)c1)c1cc(-c2ccccn2)c(N2CCOCC2)s1	?	-1	-14	i	-15	-10	-4	?
Cc1cc(NCCN2CCOCC2)n2ncc(-c3ccccc3)c2n1	-4	2	.	i	-17	-3	-2	-6
Cc1ccnc(NC(=O)Cc2ccc(-c3ccccc3)cc2)c1	-5	-1	-208	i	-44	1	-3	-7
CC(C)c1ccccc1N=C1SCCCN1C(=O)c1cccc(N2C(=O)CCC2=O)c1	.	18	9	i	.	4	7	.
Cc1cccc(NC(=O)CN2C(=S)NC(C)(C)CC2C)c1 (stereo not drawn)	-5	-11	-3	i	-21	1	2	-10

By substructure: the compounds so far containing an NH in an aromatic ring
SMILES	PABP polyA inh	CSC inhib	HIV Env fusion	Rce1 inhib	UUG fidelity	MT1-MMP act inh	MT1-MMP act inh RFP	eIF4H inh
CCOc1ccc(NC(=O)CSc2nncc(=O)[nH]2)cc1	-1	-5	-6	i	-13	4	0	-6
O=C(COC(=O)c1n[nH]c2ccccc12)NCCc1ccccc1	.	-13	.	.	-14	1	-1	.

Later entries
SMILES	PABP polyA inh	CSC inhib	HIV Env fusion	Rce1 inhib	UUG fidelity	MT1-MMP act inh	MT1-MMP act inh RFP	eIF4H inh
COc1ccc(/C=N/NC(=O)c2ccncc2)cc1CN1CCOCC1	17	-15	-3	i	.	0	3	14
COC(=O)[C@@H](Cc1c[nH]c2ccccc12)NC(=O)c1ccc2c(c1)OCO2	4	-7	-21	i	-44	1	4	-7
CN1CCN(c2nc3c(c(=O)n(C)c(=O)n3C)n2Cc2cccc3ccccc23)CC1	-5	-6	.	i	-3	-3	-4	-10
CNC(=O)[C@H]1O[C@@H](n2cnc3c(NCc4cccc(I)c4)nc(Cl)nc32)[C@H](O)[C@@H]1O	.	3	-10	.	-7	2	0	.
O=C1CSC(c2ccc(Cl)cc2Cl)N1c1ccccn1 (stereo not drawn)	5	-7	10	i	.	0	0	-6
O=C(CN1CCN(c2ccc([N+](=O)[O-])cc2Cl)CC1)N1CCOCC1	19	9	5	i	7	2	-4	-4
Cc1nn(-c2ccccc2)c(Cl)c1/C=N/NC(=O)c1ccc(NS(=O)(=O)c2cccs2)cc1	-1	9	.	i	.	.	.	-4
COC(=O)c1nnn(CC(=O)Nc2cc(Cl)ccc2C)c1C(=O)OC	1	-9	-38	i	-14	-12	1	0
Cn1cc(CNC(=O)c2ccc3nc(Cc4ccccc4F)oc3c2)cn1	7	-2	-7	i	-6	-1	-7	12
CC(C)c1ccc(CC(=O)N2CCC2(C)C(=O)NS(=O)(=O)c2ccc(C(C)(C)C)cc2)cc1 (stereo not drawn)	.	.	8	.	18	4	5	.

Fetched one by one from the entries so far, 2 records:
SMILES	PABP polyA inh	CSC inhib	HIV Env fusion	Rce1 inhib	UUG fidelity	MT1-MMP act inh	MT1-MMP act inh RFP	eIF4H inh
CNC(=O)[C@H]1O[C@@H](n2cnc3c(NCc4cccc(I)c4)nc(Cl)nc32)[C@H](O)[C@@H]1O	.	3	-10	.	-7	2	0	.
COC(=O)[C@@H](Cc1c[nH]c2ccccc12)NC(=O)c1ccc2c(c1)OCO2	4	-7	-21	i	-44	1	4	-7

Source: PubChem
